From PubChem
gsp agonist: gsp mutant agonism. gsp mutant cells, cAMP HTRF, 30 min; control for the full effect not named in the record. actives 0.13% (n = 340,000). AID 624287. Potency, µM (top dose mostly 76.9 µM), for inactives: top-dose activation (cAMP increase), hits mostly activators; active = well fitted activation curve with a large enough effect; inconclusive = small, poorly fitted or top-dose-only effect, or another doubt; inactive = no such curve, though single readings can be large or run the other way; cell line not stated here;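 further: phosphodiesterase inhibitor Ro 20-1724 added with compounds to block cAMP breakdown; potency means the concentration at half of the fitted maximal effect; nearly all actives have a fitted effect of over 60% in size; about a fifth of the inactives were tested at one dose only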
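Cells in DMEM/10% FBS with G418 were pretreated with compounds in DMSO plus […] (300 uM stock) for 30 min at 37C. cAMP was measured by HTRF (cAMP-d2 plus anti-cAMP antibody-K) after 30 min at room temperature.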
ClpP mod: qHTS Assay for Activators of ClpP. ATP-dependent Clp protease proteolytic subunit (Bacillus subtilis (strain 168)), P80244. purified B. subtilis ClpP, FRET peptide cleavage, 20 min. Potency, µM (highest dose often 57.5 µM), for the others: at the top dose activity change, negative = active. actives 1.9% (n = 340,000). AID 651965, 2013; active = well fitted falling curve with a large enough effect; inconclusive = small, poorly fitted or top-dose-only effect; inactive = no such curve, though single readings can be large or run the other way; further: potency means the concentration at half of the fitted maximal effect; the source files actives as falling curves though it sought activators and does not explain the sign; nearly all actives have a fitted effect of over 65% in size; many hits overshoot -100%
Target sequence (P80244 whole entry, looked up): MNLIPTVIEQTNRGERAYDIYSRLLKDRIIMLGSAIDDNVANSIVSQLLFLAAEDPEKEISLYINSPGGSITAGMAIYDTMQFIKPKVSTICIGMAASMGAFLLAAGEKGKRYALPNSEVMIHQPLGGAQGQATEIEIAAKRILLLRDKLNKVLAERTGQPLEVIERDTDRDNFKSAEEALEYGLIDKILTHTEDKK
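ClpP 10 microg/mL final, pH 8 Tris/KCl buffer with BSA, glycerol, Tween-20; compound pinned in; FRET-FV substrate; RT 20 min; Ex320/Em430; ΔFRET vs ADEP 5.8 microM, DMSO, no enzyme.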
TRPML1 blocker: human mucolipin-1 channel inhibition. Q9GZU1. TRPML1-inducible cells, Ca2+ dye fluorescence, FDSS; hits give low values; inhibition of EC80 agonist-evoked calcium signal. activity change, negative = inhibition, % (concentration not given with the values). actives 0.02% (n = 390,000). AID 624415; in the data active means activity change below about -50%; inconclusive means about -30% to -50%; inactive means above about -30%;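 further: stimulus is agonist 54-4 at its EC80 concentration; on the % scale 0 is the no-effect control and ±100 the full control effect; compound concentration not given in the record; the text of the record puts the active cut at -80%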
Target sequence (Q9GZU1 whole entry, looked up): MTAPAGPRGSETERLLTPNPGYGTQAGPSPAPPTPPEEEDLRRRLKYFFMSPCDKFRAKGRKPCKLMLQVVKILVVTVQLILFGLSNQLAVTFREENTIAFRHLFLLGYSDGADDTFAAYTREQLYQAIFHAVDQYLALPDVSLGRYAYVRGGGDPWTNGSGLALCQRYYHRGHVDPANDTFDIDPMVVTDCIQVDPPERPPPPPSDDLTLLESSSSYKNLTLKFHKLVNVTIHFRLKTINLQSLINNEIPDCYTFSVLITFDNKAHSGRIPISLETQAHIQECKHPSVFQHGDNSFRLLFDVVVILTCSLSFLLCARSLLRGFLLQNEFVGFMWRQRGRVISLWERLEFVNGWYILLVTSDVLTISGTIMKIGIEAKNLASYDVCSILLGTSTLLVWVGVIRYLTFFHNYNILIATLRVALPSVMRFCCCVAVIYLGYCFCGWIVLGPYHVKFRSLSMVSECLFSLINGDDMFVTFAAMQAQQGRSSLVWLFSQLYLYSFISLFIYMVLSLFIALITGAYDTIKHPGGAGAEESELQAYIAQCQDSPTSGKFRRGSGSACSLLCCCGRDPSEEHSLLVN
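Calcium fluorescence in TRPML1-DL cells induced overnight with Tet: a 110 s read after compound pin addition, then a 110 s antagonist read after challenge with 54-4 at 4 uM final (EC80).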
Menin-MLL FL inh: inhibitors of human menin-MLL interaction, wild-type MLL peptide; Fluorescence polarization, fluorescein-MLL peptide displacement from menin; FP activity change, % at 61.4 µM; 290,000 tested, under 10 active; AID 1766; inconclusive = falling polarisation curve, or a change in total fluorescence; inactive = total fluorescence flat and polarisation flat or rising; no compound was filed as active; the % refers to the polarisation; negative = inhibition;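 further: % of control where 0% means no effect; inhibitors lower the polarisation; unlabelled MLL peptide was the positive control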
TRPML1 ag: agonists of human TRPML1 channel; TRPML1-expressing cells, Ca2+ dye fluorescence, FDSS; host cell line not named in the record; reference of the full effect not given here; AID 624414; Q9GZU1; activation, % (test concentration not listed); actives 0.12% (n = 410,000); in the data active = activation above about 50%; inconclusive = about 30% to 50%; inactive = below about 30%; further: 0% is about no effect; the text of the record puts the active cut at 80%
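Agonist activity was taken from a 110 s kinetic Ca2+ dye read on the FDSS after pinning compounds onto TRPML1-DL cells. The cells were seeded at 1,500/well with Tet inducer, incubated about 16 h, then dye-loaded at room temperature.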
gsp antagonist: gsp mutant antagonism. actives 0.4% (n = 340,000). Potency, µM (top dose mostly 76.9 µM), for inactives: at the highest dose activity change, negative = inhibition, hits mostly inhibitors. gsp-mutant cells, cAMP HTRF, 30 min; control for the full effect not named in the record; active = falling curve of any shape with a large fitted effect; inconclusive = falling curve, mostly with a smaller effect; inactive = flat or rising curve; cell line not stated here;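 further: intracellular cAMP measured with PDE inhibitor Ro 20-1724 present during compound exposure; potency means the concentration at half of the fitted maximal effect; on the % scale 0 is the no-effect control and ±100 the full control effect; nearly all actives have a fitted effect of over 65% in size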
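Cells in G418 medium, seeded 16-24 h, 37C; buffer exchange to DPBS + 1 mM CaCl2, 0.5 mM MgCl2, 0.05% BSA; cpds in DMSO + […] (300 uM stock), 30 min 37C; HTRF cAMP detection.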
* = called active by the depositor; ? = inconclusive; . = not tested or not shown; & = joins results of further samples; [ ] = another dose, or the depositor's remark. Compounds were not picked by outcome; any-hit rate near 2.1%.

SMILES	gsp agonist	ClpP mod	TRPML1 blocker	Menin-MLL FL inh	TRPML1 ag	gsp antagonist
Cc1cc(C)cc(NC(=O)c2cccnc2)c1	-6.0%[15.4 µM]	-3.0%	-11.3	-3.7	-0.8	6.8%
CCc1cccc(OCC2Cn3c(nc4c3c(=O)n(C)c(=O)n4C)O2)c1 (stereo unspecified)	?	.	5.3	-4.7	-0.7	-9.8%
O=C(O)C[C@H]1c2cc(F)ccc2S(=O)(=O)N1C1CCN(Cc2ccccc2)CC1	-40.8%[inhibitor]	-1.2%	-3.2	.	-0.6	13.3%
CC(C)CCn1c(Sc2nc3ccccc3s2)nc2c1c(=O)[nH]c(=O)n2C	-28.2%	1.2%	3.3	1.1	2.1	8.5%
Cc1cccc(NC(=O)C(c2cccc([N+](=O)[O-])c2)N2CCCCC2)c1 (stereo unspecified)	1.8%	0.5%	41.6	-2.6	2.8	-17.3%
CC(=O)N1C[C@H]2CON(C)[C@H]2C[C@H]1c1ccc(-c2ccc(C#N)cc2)cc1	?	-4.6%	18.1	.	-0.5	.
CC1CCN(S(=O)(=O)c2cccc(C(=O)N(Cc3ccccc3)c3ccccn3)c2)CC1	2.1%	1.5%	4.9	-3.9	-0.5	-27.8%
Cc1ccc(-c2cc(C(=O)OCC(=O)c3ccccc3)c3cccc(Cl)c3n2)cc1	.	?	3.4	.	0.0	.
CCN(C(=O)COC(=O)c1ccccc1Cc1ccccc1)c1c(N)n(Cc2ccccc2)c(=O)[nH]c1=O	8.3%	-2.5%	12.7	.	0.0	-14.4%
Cc1cc(C)c2cc(C#N)c(N3CCCN(S(=O)(=O)c4ccccc4)CC3)nc2c1	-34.4%[inhibitor]	-4.0%	-1.5	.	0.2	40.3%[activator]
COc1ccc(N2CC(C(=O)OCC(=O)Nc3cccc(C)c3)CC2=O)cc1 (stereo unspecified)	-7.5%[15.4 µM]	0.9%	-1.5	-0.5	-1.5	3.6%
CN(CCC(=O)Nc1ccc(Br)cc1)Cc1ccccc1	-0.3%	-2.0%	3.4	-0.4	0.1	-11.2%
Cc1ccc2[nH]c3c(c2c1)CN(C(=O)CN1CCN(Cc2ccc4c(c2)OCO4)CC1)CC3	6.4%	-0.4%	13.4	-20.7	-0.2	-1.1%[15.4 µM]
CC(C)CCc1noc(CN2CCN(CC(=O)NC(C)C)CC2)n1	-10.9%[15.4 µM]	.	-20.1	-1.3	0.0	11.1%
Cc1cccc(C)c1OCC(=O)Nc1ccc(NC(=O)c2ccco2)cc1	5.6%	.	-0.5	-1.8	-0.2	-10.1%
COc1ccccc1N=Cc1c(O)c2ccccc2oc1=O	12.3%	-13.0%	0.9	-21.8	0.1	6.2%
COc1ccc(C(=O)N2CCc3cc(OC)c(OC)cc3C2c2ccc(OC)c(OC)c2)cc1OC (stereo unspecified)	-8.2%[15.4 µM]	-3.0%	12.3	-20.9	-0.8	7.1%
O=C(OCc1nnc(-c2cccs2)o1)C1=NN(c2ccccc2)C(=O)CC1	-5.6%	-14.4%	3.7	.	-0.9	-4.9%
CCC(=O)Nc1nnc(-c2ccc(Cl)s2)o1	-40.4%[inhibitor]	4.0%	-8.9	-1.8	0.2	0.3%
COC(=O)c1c(NC(=O)c2cccnc2Cl)sc(C(=O)N(C)C)c1C	-31.4%[inhibitor]	-0.2%	4.2	4.1	0.3	-2.4%
Cc1ccc(Cl)cc1NC(=O)CN1CCN(S(=O)(=O)N2CCOCC2)CC1	-11.1%	.	1.0	.	-0.6	1.2%
CC(C)(Oc1ccc(Cl)cc1)C(=O)OCC(=O)NCCc1ccccc1	-106.2%[inhibitor]	0.5%	-19.7	.	1.2	5.3%
Cc1nn(-c2ccccc2)c(N2CCCCC2)c1/C=N/NC(=O)c1ccncc1	-3.7%[15.4 µM]	.	2.3	-2.2	1.9	?
COc1ccc(CCN(C)C(=O)CCNS(=O)(=O)c2ccccc2C(F)(F)F)cc1OC	10.3%	1.8%	-8.8	.	-0.7	11.5%
O=C(NC1CCCC1)C(c1ccc(F)cc1)N(C(=O)c1csnn1)c1ccccc1 (stereo unspecified)	-1.8%[15.4 µM]	.	5.3	-6.1	-0.1	.
Cc1ccc(CNC(=O)CN(c2ccc(Cl)cc2Cl)S(=O)(=O)c2ccccc2)cc1	.	-4.7%	72.3	.	3.8	.
COc1cccc(CCNC(=O)c2cc(COc3cccc(OC)c3)on2)c1	2.3%	-0.8%	7.1	.	0.6	.
Cc1ccccc1NC(=O)Cc1nc(COC(=O)c2nccnc2N)cs1	-51.1%[inhibitor]	3.8%	-1.3	.	-0.9	.
CC(C)(C)OC(=O)NCCCCCNC(=O)c1ncn(Cc2ccccc2)c1C(=O)NCCCCCNC(=O)OC(C)(C)C	-1.8%	1.0%	21.9	.	3.5	-11.3%
O=C(NC1CCCCC1)N1CCC(n2cnc3ccccc32)CC1	-24.2%	0.7%	1.8	-0.2	-0.5	8.8%
CCOc1ccc(NC(=O)c2cccc(NC(=O)c3ccccc3)c2)cc1	15.3%[15.4 µM]	0.1%	-8.1	3.4	0.0	-0.8%
O=C(O)C1CCN(S(=O)(=O)c2ccc3c(c2)OCCCO3)CC1	-18.9%	.	-9.3	0.3	0.4	4.3%
Cc1cc(-c2nc(C)c(C(=O)NNS(=O)(=O)c3ccc(Cl)cc3Cl)s2)no1	3.7%	.	-9.7	1.9	1.1	-18.3%
CCOC(=O)c1ccccc1NC(=S)N1CCCCC1	4.9%[15.4 µM]	-1.7%	-4.1	4.3	-0.6	2.2%
CCOC(=O)c1c(S(=O)(=O)N2CCC(C(=O)Nc3ccc(F)cc3F)CC2)c(C)n(C)c1C	.	0.3%	-9.2	.	-1.3	.
COc1cc2cc(C(c3nnnn3C3CCCC3)N3CCCCCC3)c(=O)[nH]c2cc1OC (stereo unspecified)	2.3%	?	-14.0	11.3	2.1	-6.8%
Cc1cccc(CS(=O)(=O)Cc2ccc(C(=O)NCc3ccccc3)o2)c1	-6.1%	-1.8%&1.1%	47.5&-4.6	.	3.1&-0.4	6.9%
O=C(O)c1ccc(-n2c(O)c(C=C3N=c4ccccc4=N3)sc2=S)cc1	-21.7%	-2.5%	.	10.2	.	-18.5%
CS(=O)(=O)c1nc(S(=O)(=O)c2ccc(Cl)cc2)c(N2CCC(C(N)=O)CC2)s1	12.0%	-2.4%	1.3	.	-0.5	-10.2%
Cc1cccc(C(=O)OCC(=O)N2CCCCCC2)c1	-7.3%	0.4%	-6.7	.	-0.1	8.6%
CCOc1ccc2[nH]cc(-c3csc(N)n3)c2c1	-36.3%[inhibitor]	-3.4%	-16.7	?	0.8	-14.3%
Cc1cc(C)cc(NC(=S)N(CCN(C)C)C(C)c2cccnc2)c1 (stereo unspecified)	-0.9%[15.4 µM]	.	5.1	-2.6	2.1	-2.2%
CCc1ccc(NC(=O)NCc2ccc3c(c2)OCO3)cc1	-5.8%	0.3%	13.3	-1.3	0.9	18.1%
C/C(CC(=O)Nc1ccc(C)c(Cl)c1)=N\NC(=O)c1ccncc1	-12.1%[15.4 µM]	.	10.5	-0.3	0.1	-33.5%
O=C(CSc1nnc(-c2ccc(OC(F)F)cc2)o1)N1CCOCC1	7.6%	-0.9%	-5.5	2.3	0.2	12.6%
COc1ccc(-c2cc(=O)oc3cc(OCC(=O)N4CCOCC4)ccc23)cc1	13.5%[15.4 µM]	.	18.6	-1.1	0.2	-51.8%
COc1ccc(C(=O)/C=C/c2cc(C(=O)O)cc3c2OCOC3)c(O)c1	3.0%[15.4 µM]	.	5.7	-0.3	-0.6	?
COC(=O)CN(c1ccc(C)cc1)S(=O)(=O)c1ccc(F)cc1	-4.2%	.	1.0	-4.7	-0.7	-6.3%
Cc1noc(C)c1CSc1ccccc1C(=O)OC(C)C(N)=O (stereo unspecified)	-19.2%[15.4 µM]	.	-7.8	1.7	-0.5	-20.3%
Cc1ccc(C(CC(=O)O)NC(=O)CN2C(=O)c3ccccc3C2=O)cc1 (stereo unspecified)	-5.4%[15.4 µM]	-0.7%	-3.3	-0.3	-1.2	17.4%
COc1ccccc1Nc1c([N+](=O)[O-])cc(C)cc1[N+](=O)[O-]	-9.8%	0.1%	-14.0	-0.9	2.2	?
CC(=O)N1CCC2(CC1)C/C(=N\NC(=S)Nc1ccc(C)cc1)c1cc(O)ccc1O2	-10.2%	-29.7%	4.9	1.9	-0.4	?
Cc1cccc(NC(=O)COc2ccc3oc4c(c3c2)CCCC4)c1	.	-15.5%	-11.0	.	4.0	.
CCN(CC)CCNC(=O)C1CCN(c2nn3cc(-c4ccc(F)cc4)nc3s2)CC1	.	-1.1%	13.0	.	1.2	.
COc1ccc(-c2cn(-c3ccc(C)cc3C)c(=S)[nH]2)cc1OC	24.9%	.	-1.0	1.1	1.5	2.3%
COc1ccc(CCNC(=O)/C(C#N)=C2\N=C(NC(=O)c3cccs3)c3ccccc32)cc1	0.3%	-17.7%	-12.7	?	2.3	-8.2%
CC(C)(C)OC(=O)NCCc1onc(-c2cccc([N+](=O)[O-])c2)c1C(=O)O	9.2%	3.0%	6.0	.	-0.3	.
C/C(CC(=O)Nc1cccc(Cl)c1C)=N\NC(=O)Cc1csc(N)n1	9.0%	0.7%	34.6	1.6	0.7	7.7%
COc1ccccc1CNC(=O)CCn1c(=O)c2ccccc2n(CC(=O)Nc2ccc(Br)cc2F)c1=O	.	-3.1%	29.7	.	0.0	.
Cc1cccc(C)c1OCCOC(=O)c1cccc(S(=O)(=O)N2CCOCC2)c1	?	-1.4%	28.8	.	3.2	-8.0%

Copied from the list:
TRPML1 blocker result of COc1ccc(-c2cn(-c3ccc(C)cc3C)c(=S)[nH]2)cc1OC stands at -1.0
gsp agonist result of Cc1ccc(C(CC(=O)O)NC(=O)CN2C(=O)c3ccccc3C2=O)cc1 (stereo unspecified) stands at -5.4%[15.4 µM]

New compounds follow
SMILES	gsp agonist	ClpP mod	TRPML1 blocker	Menin-MLL FL inh	TRPML1 ag	gsp antagonist
O=c1c2ccccc2nc2n1C(CSCc1cccc(C(F)(F)F)c1)CS2 (stereo unspecified)	?	-4.2%	2.1	1.3	1.0	-16.7%
O=c1oc2ccccc2n1Cc1cccc(Cl)c1	-4.1%	1.5%	4.4	-1.3	-0.6	-10.8%
CCc1ccc(C(=O)COC(=O)c2cccnc2Cl)cc1	9.3%[15.4 µM]	.	2.6	-1.6	5.3	-3.1%
O=C(O)CC(C(=O)OC1CCCCC1)N1CCOCC1 (stereo unspecified)	?	-1.8%	6.2	1.7	0.5	3.3%
Cc1cc(C(=O)CSc2n[nH]c(N)n2)c(C)n1-c1ccccc1	-3.9%	-2.8%	2.3	3.7	-0.5	-21.6%
COc1cc(C(=S)N2CCOCC2)ccc1OC(=O)c1ccccc1[N+](=O)[O-]	-18.1%	-0.6%	4.2	-1.7	0.7	-20.8%
